Bioassay records deposited in PubChem by Broad Institute.
Vaccinia stage: blocks a specific stage of Vaccinia orthopoxvirus infection; Vaccinia-infected cells, mCherry/Venus stage reporter fluorescence; hits give low values; some inactives read as strong as hits; AID 1053133; 89,000 tested, 0.01% active; activity change (mCherry), % (no concentration beside the values);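 active means mCherry past -33% and 40 or more points under the early reporter, replicates agreeing; inconclusive means past -33% without that gap or agreement; tested in A549 cells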;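 further: scaled between vehicle wells and reference inhibitor wells; 23 nL library stock went into each well; one replicate is shown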
Vaccinia stage Venus: recorded beside Vaccinia stage, whose call it bears; activity change (Venus), %; measured here: Venus reporter, other viral stage;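 negative = less Venus signal; first of two replicates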
* marks the source's active call; other numbers are inactive results; ? = inconclusive; / = no result given. Not all compounds are listed (hit frequency here may not be typical).

Sample of the layout (7 entries):
structure	Vaccinia stage	Vaccinia stage Venus
CC(=O)N1[C@H](CO)[C@H](c2ccc(-c3ccncc3)cc2)[C@@H]1CNC(=O)CC1CC1	12.1	11.3
O=S(=O)(N[C@@H]1CC[C@@H](CCNS(=O)(=O)c2ccccc2Cl)O[C@@H]1CO)c1ccccc1	4.5	10.2
OC[C@H]1[C@H](c2ccccc2)C2(CN(Cc3ccccc3F)C2)N1Cc1ccccc1F	-10.9	3.0
C[C@@H]1CN([C@@H](C)CO)C(=O)Cc2cc(NC(=O)Cn3cnnn3)ccc2O[C@@H]1CN(C)Cc1ccc(Oc2ccccc2)cc1	12.9	9.3
C[C@@H]1CN([C@@H](C)CO)C(=O)c2cc(-c3ccccc3)cnc2O[C@H]1CN(C)C(=O)NC1CCCC1	-0.8	-6.8
COCC(=O)N1[C@@H](C#N)[C@H](c2ccc(-c3cccnc3)cc2)[C@@H]1CO	-4.5	0.9
C[C@@H]1CN([C@@H](C)CO)C(=O)Cc2cc(NS(=O)(=O)c3ccc(F)cc3)ccc2O[C@H]1CN(C)Cc1ccc(C(F)(F)F)cc1	?	/

All compounds of this part, from the first entry:
structure	Vaccinia stage	Vaccinia stage Venus
CC(=O)N1[C@H](CO)[C@H](c2ccc(-c3ccncc3)cc2)[C@@H]1CNC(=O)CC1CC1	12.1	11.3
O=S(=O)(N[C@@H]1CC[C@@H](CCNS(=O)(=O)c2ccccc2Cl)O[C@@H]1CO)c1ccccc1	4.5	10.2
OC[C@H]1[C@H](c2ccccc2)C2(CN(Cc3ccccc3F)C2)N1Cc1ccccc1F	-10.9	3.0
C[C@@H]1CN([C@@H](C)CO)C(=O)Cc2cc(NC(=O)Cn3cnnn3)ccc2O[C@@H]1CN(C)Cc1ccc(Oc2ccccc2)cc1	12.9	9.3
C[C@@H]1CN([C@@H](C)CO)C(=O)c2cc(-c3ccccc3)cnc2O[C@H]1CN(C)C(=O)NC1CCCC1	-0.8	-6.8
COCC(=O)N1[C@@H](C#N)[C@H](c2ccc(-c3cccnc3)cc2)[C@@H]1CO	-4.5	0.9
C[C@@H]1CN([C@@H](C)CO)C(=O)Cc2cc(NS(=O)(=O)c3ccc(F)cc3)ccc2O[C@H]1CN(C)Cc1ccc(C(F)(F)F)cc1	?	/
O=C([C@@H]1[C@@H](CO)[C@@H]2Cn3c(ccc(C4=CCCC4)c3=O)[C@H]1N2C(=O)c1cccnc1)N1CCOCC1	8.5	8.7
O=C(C[C@H]1CC[C@H](NC(=O)Nc2ccccc2)[C@@H](CO)O1)NCc1ccccn1	1.0	12.1
CCCC#Cc1cnc2c(c1)C(=O)N([C@@H](C)CO)C[C@H](C)[C@H](CN(C)Cc1ccncc1)O2	24.4	5.6
C/C=C/c1ccc([C@@H]2[C@H](CO)N(CCC(F)(F)F)C23CN(C(=O)CC2CC2)C3)cc1	-19.9	-12.0
CO[C@H]1CN(C)C(=O)c2cc(NC(=O)c3ccc(-c4ccccc4)cc3)ccc2OC[C@H](C)NC[C@@H]1C	?	/
COc1ccc(S(=O)(=O)Nc2ccc3c(c2)C(=O)N([C@H](C)CO)C[C@H](C)[C@@H](CN(C)S(C)(=O)=O)O3)cc1	28.6	18.9
CC(=O)N1[C@@H]2c3ccc(-c4ccncc4)c(=O)n3C[C@@H]2[C@@H](CO)[C@@H]1C(=O)NC1Cc2ccccc2C1	24.9	5.7
C[C@@H]1CCCCO[C@H](CN(C)Cc2ccncc2)[C@H](C)CN([C@H](C)CO)C(=O)c2cc(NS(=O)(=O)c3ccc(F)cc3)ccc2O1	-11.1	-11.3
Cc1ccc(S(=O)(=O)N(C)C[C@H]2Oc3ccc(NC(=O)CCCN(C)C)cc3CC(=O)N([C@@H](C)CO)C[C@@H]2C)cc1	23.7	10.9
C/C=C/c1ccc([C@H]2[C@@H](CN(C)C(=O)CC)N(C(=O)C3CC3)[C@H]2CO)cc1	1.0	-1.2
Cc1cccc(S(=O)(=O)N2CCCCN3[C@H](CO)[C@H](c4ccc(C#CC5CC5)cc4)[C@@H]3C2)c1	-31.1	-33.9
CC(C)CC#Cc1ccc([C@H]2[C@H](CO)N3C(=O)CN(C(=O)c4cccc(F)c4)C[C@@H]23)cc1	-17.2	-9.3
C[C@@H]1CN([C@H](C)CO)C(=O)Cc2cc(NC(=O)CCCCCC(=O)Nc3ccccc3N)ccc2O[C@H]1CN(C)C	15.5	5.0
Cn1cnc(S(=O)(=O)N[C@H]2C=C[C@H](CC(=O)NCC3CCCCC3)O[C@@H]2CO)c1	-1.7	1.1
CCC(=O)N(C)C[C@@H]1Oc2ncc(-c3ccccc3OC)cc2C(=O)N([C@H](C)CO)C[C@H]1C	21.2	10.9
CC(C)[C@H]1COCn2nncc2CCCC(=O)N1	3.2	-0.7
CC(C)(C)[S@@](=O)N1Cc2cc(C(=O)NCCc3ccncc3)nc(-c3cccc(-c4ccccc4)c3)c2[C@H]1CCO	?	/
COc1ccccc1C(=O)Nc1ccc2c(c1)C(=O)N(C)[C@@H]1CC[C@@H](CC(=O)NCCc3ccncc3)O[C@H]1CO2	5.0	13.8
Cc1ccc(OC(=O)N(C)C[C@H]2OCc3cnnn3CCCC(=O)N([C@H](C)CO)C[C@H]2C)cc1	14.5	8.5
C[C@@H]1CN([C@H](C)CO)S(=O)(=O)c2ccc(C#CCN(C)C)cc2O[C@H]1CN(C)Cc1ccncc1	-8.7	-3.7
CN(C)C(=O)[C@@H]1[C@@H](CO)[C@@H]2Cn3c(ccc(-c4ccncc4)c3=O)[C@@H]2N1Cc1ccccc1	18.9	18.2
CC(C)C#Cc1ccc([C@H]2[C@H](CO)N3C(=O)CN(C(=O)c4ccc5c(c4)OCO5)C[C@@H]23)cc1	-1.2	5.4
O=C(C1CCOCC1)N1CC(=O)N2[C@H](CO)[C@H](c3ccc(C#CC4CCCCC4)cc3)[C@H]2C1	-17.6	-37.1
COc1ccc(S(=O)(=O)N[C@H]2C=C[C@H](CC(=O)NCc3ccccc3F)O[C@@H]2CO)cc1	-7.2	0.8
CCS(=O)(=O)N[C@H]1C=C[C@@H](CC(=O)NCc2ccc(Cl)cc2)O[C@@H]1CO	14.8	15.4
CNC[C@H]1OCCCC[C@@H](C)Oc2ccc(NS(=O)(=O)c3ccc(Cl)cc3)cc2C(=O)N([C@H](C)CO)C[C@@H]1C	-9.2	-16.2
C/C=C/c1ccc2c(c1)O[C@H](CN(C)Cc1ccc(F)cc1)[C@@H](C)CN([C@H](C)CO)S2(=O)=O	?	/
O=C(C[C@@H]1CC[C@@H]2[C@H](COC[C@H](O)CN2Cc2cc(F)ccc2F)O1)NCc1ccc(Oc2ccccc2)cc1	?	/
C[C@@H]1CN([C@@H](C)CO)C(=O)c2cc(NS(=O)(=O)c3cn(C)cn3)ccc2O[C@@H]1CN(C)Cc1ccc(C(F)(F)F)cc1	6.0	2.7
O=C(N[C@H]1CC[C@H](CCNS(=O)(=O)c2ccc(F)cc2)O[C@@H]1CO)c1ccccn1	11.2	10.9
C[C@@H]1CCCCO[C@H](CN(C)C(=O)CCCN(C)C)[C@@H](C)CN([C@H](C)CO)C(=O)c2cc(NS(=O)(=O)c3ccc(F)cc3)ccc2O1	5.7	-3.7
C[C@H](CO)N1C[C@H](C)[C@H](CN(C)Cc2ccc(Cl)c(Cl)c2)Oc2ccc(N(C)C)cc2C1=O	-18.2	-14.5
C[C@H]1CN([C@@H](C)CO)C(=O)c2cc(NC(=O)Nc3ccc4c(c3)OCO4)ccc2O[C@@H]1CN(C)S(=O)(=O)c1ccc(Cl)cc1	19.1	15.6
C[C@H]1CN([C@@H](C)CO)C(=O)c2cc(NS(=O)(=O)c3ccc(Cl)cc3)ccc2O[C@@H]1CN(C)Cc1ccccc1	3.6	11.1
CNC[C@@H]1Oc2ncc(C#CCC3CCCC3)cc2C(=O)N([C@H](C)CO)C[C@H]1C	-22.5	-22.3
C[C@@H]1CN([C@H](C)CO)C(=O)c2cccc(NC(=O)c3nc4ccccc4s3)c2O[C@H]1CN(C)S(C)(=O)=O	6.4	5.7
C[C@@H]1CN([C@@H](C)CO)C(=O)c2cccc(NC(=O)C3CCCCC3)c2O[C@@H]1CN(C)C	3.5	11.2
COc1ccc(NC(=O)Nc2ccc3c(c2)C(=O)N([C@H](C)CO)C[C@H](C)[C@H](CN(C)CC2CC2)OCCCC[C@@H](C)O3)cc1	7.4	0.6
O=C(C[C@H]1CC[C@@H](NC(=O)NC2CCCCC2)[C@@H](CO)O1)NCc1ccc(F)cc1	-7.8	-0.9
C[C@@H]1CN([C@@H](C)CO)C(=O)Cc2cc(NC(=O)CCN3CCOCC3)ccc2O[C@H]1CN(C)C	18.0	3.4
O=C(Cc1ccncc1)N1CC(=O)N2[C@H](CO)[C@H](c3ccc(Br)cc3)[C@@H]2C1	17.4	12.6

Overlap with the part before: 2 compounds, followed by the next part.
structure	Vaccinia stage	Vaccinia stage Venus
C[C@@H]1CN([C@@H](C)CO)C(=O)Cc2cc(NC(=O)CCN3CCOCC3)ccc2O[C@H]1CN(C)C	18.0	3.4
O=C(Cc1ccncc1)N1CC(=O)N2[C@H](CO)[C@H](c3ccc(Br)cc3)[C@@H]2C1	17.4	12.6
COc1ccc2c3c([nH]c2c1)[C@@H](CO)N(S(=O)(=O)c1cn(C)cn1)CC31CCN(CC2CCCC2)CC1	-16.7	-12.4
CC(C)CC#Cc1ccc2c(c1)O[C@@H](CN(C)C(=O)NC1CCCC1)[C@@H](C)CN([C@@H](C)CO)S2(=O)=O	?	/
C[C@H]1CN([C@@H](C)CO)C(=O)Cc2cc(NS(=O)(=O)c3ccc(F)cc3)ccc2O[C@H]1CN(C)S(=O)(=O)c1cccs1	0.4	-7.8
C/C=C/c1cnc2c(c1)C(=O)N([C@@H](C)CO)C[C@H](C)[C@@H](CN(C)C(=O)c1ccc3c(c1)OCO3)O2	18.4	6.4
Cc1ccc(S(=O)(=O)NCC[C@H]2CC[C@@H](NC(=O)c3cccnc3)[C@H](CO)O2)cc1	4.7	7.7
CNC[C@H]1Oc2ccc(NS(=O)(=O)c3c(C)noc3C)cc2CC(=O)N([C@@H](C)CO)C[C@@H]1C	23.0	17.1
C[C@@H]1CN([C@H](C)CO)C(=O)c2cccc(NS(=O)(=O)c3ccccc3)c2O[C@@H]1CN(C)Cc1ccncc1	12.3	7.6
CN(C)CCCNC(=O)C[C@@H]1CC[C@H]2[C@@H](COC[C@H](O)CN2Cc2cccc(Cl)c2)O1	-11.8	-3.1
COc1cccc(-c2ccc([C@@H]3[C@H]4CN(C(=O)c5ccncc5)CC(=O)N4[C@H]3CO)cc2)c1	6.0	5.8
CCC(=O)N1[C@H](CO)[C@H](c2ccc(-c3cncnc3)cc2)[C@@H]1CN(C)C(C)=O	8.0	3.9
C[C@H](CO)N1C[C@H](C)[C@H](CN(C)C(=O)CN(C)C)Oc2cc(C#CC3CC3)ccc2S1(=O)=O	-3.6	-2.8
C[C@@H]1CCCCO[C@@H](CN(C)S(=O)(=O)c2cccs2)[C@H](C)CN([C@@H](C)CO)C(=O)c2cc(NC(=O)CCC(F)(F)F)ccc2O1	-33.5	-30.3
CN1CCCCN2[C@H](CO)[C@H](c3ccc(C#Cc4ccccc4F)cc3)[C@H]2C1	-30.9	-36.9
C[C@H](CO)N1C[C@H](C)[C@H](CN(C)C)Oc2ccc(NC(=O)Cn3cnnn3)cc2C1=O	13.7	2.7
C[C@@H]1CCCCO[C@@H](CN(C)Cc2ccc3c(c2)OCO3)[C@H](C)CN([C@H](C)CO)C(=O)c2cc(NC(=O)C3CCCCC3)ccc2O1	?	/
O=C(C[C@@H]1CC[C@H]2[C@@H](COC[C@H](O)CN2C(=O)c2ccncc2)O1)NC1Cc2ccccc2C1	2.3	0.2
CCC(=O)N(C)C[C@H]1Oc2ncc(C#Cc3cccnc3)cc2C(=O)N([C@H](C)CO)C[C@H]1C	23.5	14.8
COc1ccc(CN(C)C[C@@H]2Oc3c(NC(=O)Nc4cccc5ccccc45)cccc3C(=O)N([C@H](C)CO)C[C@@H]2C)cc1	-32.5	-22.1
O=C(C[C@H]1CC[C@H]2[C@@H](COC[C@@H](O)CN2Cc2ccccc2F)O1)N1CCc2ccccc2C1	?	/
O=C(c1cccc(F)c1)N1C[C@H]2[C@@H](c3ccccc31)[C@H](CO)N2C(=O)C1CCOCC1	9.1	8.1
CCCNC(=O)N(C)C[C@@H]1Oc2cc(Br)ccc2S(=O)(=O)N([C@H](C)CO)C[C@H]1C	19.1	14.9
CC(C)C#Cc1cnc2c(c1)C(=O)N([C@@H](C)CO)C[C@H](C)[C@H](CN(C)C(=O)c1cnccn1)O2	33.0	7.9
Cc1noc(C)c1S(=O)(=O)N(C)C[C@@H]1OCCCC[C@@H](C)Oc2ccc(NC(=O)CCCN(C)C)cc2C(=O)N([C@H](C)CO)C[C@H]1C	22.8	9.8
CO[C@@H]1CN(C)C(=O)c2ccc(NS(=O)(=O)C3CCCCC3)cc2OC[C@H](C)NC[C@H]1C	9.6	13.2
COc1cccc(C#Cc2ccc3c(c2)O[C@H](CN(C)C(C)=O)[C@H](C)CN([C@@H](C)CO)S3(=O)=O)c1	-32.6	-24.2
C[C@H]1CN([C@@H](C)CO)C(=O)c2cccc(NS(C)(=O)=O)c2O[C@H]1CN(C)C(=O)NC1CCCCC1	8.2	9.4
CC(C)NC(=O)Nc1ccc2c(c1)C(=O)N([C@@H](C)CO)C[C@@H](C)[C@H](CN(C)S(C)(=O)=O)OCCCC[C@@H](C)O2	20.3	5.2
CC(=O)N[C@@H]1CC[C@@H](CC(=O)NCc2ccc(Cl)cc2)O[C@H]1CO	13.1	12.3
Cc1noc(C)c1NC(=O)Nc1ccc2c(c1)C(=O)N([C@H](C)CO)C[C@H](C)[C@H](CN(C)S(=O)(=O)c1ccc(F)cc1)OCCCC[C@@H](C)O2	-0.7	-6.4
